Compound activity from PubChem BioAssay.
TAR Tat displ: HIV-1 TAR-Tat binding disruption; HIV-1 TAR RNA, Tat peptide displacement FRET; active compounds read high; z-score (test concentration not listed); 100,000 compounds, 0.6% hits;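 note: score is relative to mean and SD of negative controls; some compounds called inactive have numbers as strong as hits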
CDC25B CDK2 inh: human CDC25B-CDK2/CyclinA binding inhibition. AID 1259370. P30305+P24941. HTRF CDC25B-CDK2/CyclinA binding, anti-His/anti-Flag; active compounds read high. 94,000 compounds, 0.72% hits. z-score (no concentration beside the values);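 note: score is relative to mean and SD of negative controls; strong numbers were not always called active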
Active calls of the source: *.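 Rule for the calls: active = z-score from 3 up in half or more of its runs; inactive = the rest.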

Screening Cc1nc2sc3ccccc3n2c(=O)c1S(=O)(=O)N1CCN(C(=O)c2ccco2)CC1 returned TAR Tat displ -1.25 and CDC25B CDK2 inh -0.54.
`CC1CCCC(N(C)S(=O)(=O)c2ccc3c(c2)NC(=O)CS3)C1C` (configuration not stated) gave TAR Tat displ 0.78.
`COc1ccc2c(c1)C=C(C(=O)NCc1cccs1)CO2` gave TAR Tat displ 0.48.
`O=C(NC1CCCCC1)C1=Cc2ccccc2OC1` gave TAR Tat displ 1.21.
Nn1c(C(=O)NCc2cccnc2)nc2ccccc2c1=O was read as CDC25B CDK2 inh -1.13.
Nc1c(-c2nc(-c3ccccc3F)no2)nnn1-c1ccccc1Cl was read as TAR Tat displ 0.37.
For CC1CCC2C(=O)N(c3cc(Cl)ccc3OC(=O)c3ccco3)C(=O)C2C1 (configuration not stated) the results were TAR Tat displ 0.49 and CDC25B CDK2 inh 2.51.
Screening NC(=O)CSc1nnc(CSc2ncccn2)n1-c1ccccc1 returned TAR Tat displ -1.13 and CDC25B CDK2 inh -1.4.
`O=C(CSc1nnc(-c2ccco2)c(-c2ccco2)n1)Nc1ccc(Br)cc1` gave TAR Tat displ 24.6* and CDC25B CDK2 inh -0.12.
`Nc1c(C(=O)N/N=C/c2ccc3c(c2)OCO3)sc2nnc(-c3ccccc3)c(-c3ccccc3)c12` gave CDC25B CDK2 inh -1.56.
For CNC(=O)c1c(NC(=O)c2ccc(C(=O)OC)cc2)sc2c1CCC2 the results were TAR Tat displ 0.83.
Screening C=CCOc1ccc(Oc2nc(N)nc(NCC)n2)nn1 returned TAR Tat displ 0.56 and CDC25B CDK2 inh -1.94.
For Cc1ccccc1-c1coc(-c2ccc(N)cc2)n1 the results were TAR Tat displ 2.04.
`CC(C)(C)C(=O)Cn1c(=O)n(-c2ccccc2)c(=O)c2sccc21` gave CDC25B CDK2 inh -0.83.
Cn1c(=O)c2c(nc(NCCCO)n2Cc2ccc(F)cc2)n(C)c1=O was read as CDC25B CDK2 inh -0.84.
Screening COc1cccc(Nc2nc(-c3cc(OC)ccc3OC)no2)c1 returned TAR Tat displ 1.24.
`CCOc1ccc(C)cc1S(=O)(=O)n1c(C)nc2ccccc21` gave TAR Tat displ 0.28 and CDC25B CDK2 inh -1.88.
Screening COc1ccc(C2C=C(C(=O)O)Nc3nnnn32)cc1O (configuration not stated) returned TAR Tat displ 1.67.
O=C(NCCc1ccco1)c1cnc2sccn2c1=O was read as TAR Tat displ 1.27.
Screening CC1C(=O)N2CCCc3cc(S(=O)(=O)Nc4ccc(F)c(Cl)c4)cc1c32 (configuration not stated) returned TAR Tat displ 1.56.

Reprinted at random: 5 compounds from above.
Cn1c(=O)c2c(nc(NCCCO)n2Cc2ccc(F)cc2)n(C)c1=O was read as CDC25B CDK2 inh -0.84.
O=C(NCCc1ccco1)c1cnc2sccn2c1=O was read as TAR Tat displ 1.27.
Screening COc1ccc(C2C=C(C(=O)O)Nc3nnnn32)cc1O (configuration not stated) returned TAR Tat displ 1.67.
`CC(C)(C)C(=O)Cn1c(=O)n(-c2ccccc2)c(=O)c2sccc21` gave CDC25B CDK2 inh -0.83.
For CNC(=O)c1c(NC(=O)c2ccc(C(=O)OC)cc2)sc2c1CCC2 the results were TAR Tat displ 0.83.

Quoted from the results shown, 5 compounds:
Screening Cc1nc2sc3ccccc3n2c(=O)c1S(=O)(=O)N1CCN(C(=O)c2ccco2)CC1 returned TAR Tat displ -1.25 and CDC25B CDK2 inh -0.54.
`CC1CCCC(N(C)S(=O)(=O)c2ccc3c(c2)NC(=O)CS3)C1C` (configuration not stated) gave TAR Tat displ 0.78.
`COc1ccc2c(c1)C=C(C(=O)NCc1cccs1)CO2` gave TAR Tat displ 0.48.
`O=C(NC1CCCCC1)C1=Cc2ccccc2OC1` gave TAR Tat displ 1.21.
Nn1c(C(=O)NCc2cccnc2)nc2ccccc2c1=O was read as CDC25B CDK2 inh -1.13.

Going on with the list:
CCN(Cc1nnc(-c2ccccc2)o1)C1CCCCC1 was read as TAR Tat displ 2.51 and CDC25B CDK2 inh -1.22.
Screening CCn1cnc(S(=O)(=O)N2CCCC(C(=O)N3CCC(N4CCCCC4)CC3)C2)c1 (configuration not stated) returned TAR Tat displ 1.92.
For CCCN1C(=O)C(O)(CC(=O)c2ccc3c(c2)OCO3)c2cc(Br)ccc21 (configuration not stated) the results were TAR Tat displ 1.6 and CDC25B CDK2 inh -0.46.
Screening CCCCOC(=O)COc1ccc2c(=O)c(Oc3ccc(OC)cc3)c(C(F)(F)F)oc2c1 returned CDC25B CDK2 inh -1.67.
For Cc1ccc2c(C)nc(NC3=NCN(CCN4CCOCC4)CN3)nc2c1 the results were TAR Tat displ 2.55 and CDC25B CDK2 inh 3.88.
For Cc1nc(-c2cccnc2)sc1C(=O)NN the results were CDC25B CDK2 inh -0.06.
`COc1ccc2nc3oc(C(=O)N4CCN(C)CC4)cc3cc2c1` gave CDC25B CDK2 inh -1.
Screening O=C(Nc1ccc2c(c1)OCCO2)c1cnn(-c2ccccc2)c1-n1cccc1 returned TAR Tat displ 0.95 and CDC25B CDK2 inh -2.68.
For N=C1C(c2nc3ccccc3c(=O)[nH]2)=C(O)CN1Cc1ccc(Cl)cc1 the results were TAR Tat displ 1.53 and CDC25B CDK2 inh -1.17.
Clc1ccc(-c2ccn[nH]2)cc1 was read as CDC25B CDK2 inh -0.25.
For Clc1ccc(Oc2nc(-c3cccnc3)nc3ccccc23)cc1 the results were TAR Tat displ -1.41 and CDC25B CDK2 inh -0.35.
O=C(NCc1ccco1)c1ccc2noc(-c3ccc(Cl)cc3)c2c1 was read as TAR Tat displ -0.83.
`O=C(Cn1c(CN2CCCCC2)nc2ccccc21)N1CCOCC1` gave TAR Tat displ 1.49 and CDC25B CDK2 inh -0.98.
For COC(=O)Nc1ccc(S(=O)(=O)N2CCN(C)CC2)cc1 the results were TAR Tat displ -1.51 and CDC25B CDK2 inh -0.98.
Screening Cc1nn(-c2nncc(-c3ccc(F)cc3)n2)c2c1C(c1ccc(Cl)cc1)CC(=O)N2 (configuration not stated) returned TAR Tat displ 1.67 and CDC25B CDK2 inh -1.26.
Screening O=S(=O)(NCCS(=O)(=O)N1CCN(c2ccc(F)cc2)CC1)c1ccc2c(c1)OCCO2 returned TAR Tat displ 1.15.
`COc1cc(/C=C2/SC(=S)N(CC(=O)Nc3cccc(C(=O)O)c3)C2=O)cc(OC)c1OC` gave CDC25B CDK2 inh -2.52.
Screening O=S(=O)(c1ccc2c(c1)OCCCO2)N1CC=C(c2ccccc2)CC1 returned CDC25B CDK2 inh -0.48.
`CSc1cccc(NC(=O)C2c3ccccc3C(=O)N(C3CCCC3)C2c2cccs2)c1` (configuration not stated) gave TAR Tat displ 0.74.
Screening O=C1c2ccccc2-c2onc3c(N4CCN(C(=O)c5ccco5)CC4)cc(NC4CCCCC4)c1c23 returned TAR Tat displ -2.79 and CDC25B CDK2 inh -2.15.
Cc1ccc(C2c3c(oc4ccc(C)cc4c3=O)C(=O)N2c2nccs2)cc1 (configuration not stated) was read as TAR Tat displ 0.15 and CDC25B CDK2 inh -0.52.
CCOc1ccc(CN2CCc3nc(N4CCCC4)ncc3C2)cc1OCC was read as TAR Tat displ 0.26.
For Cc1nn(-c2nncc(-c3ccccc3)n2)c2c1C(c1ccc3c(c1)OCO3)CC(=O)N2 (configuration not stated) the results were TAR Tat displ 1.79 and CDC25B CDK2 inh 1.47.
`CN1CCN(C(=O)c2[nH]nc3c2CCc2ccccc2-3)CC1` gave TAR Tat displ 0.14.
Screening Cc1ccc(-n2ncc3c(NCc4ccc(F)cc4)ncnc32)cc1C returned TAR Tat displ 0.21.
For COC(=O)CSc1n[nH]c(=O)[nH]c1=O the results were TAR Tat displ 0.69 and CDC25B CDK2 inh 0.37.
For C/C(=N\Nc1c(Cl)cc(Cl)cc1Cl)c1c(O)cc(C)oc1=O the results were CDC25B CDK2 inh -1.43.
Screening CSc1ccc(C2c3c(oc4ccc(F)cc4c3=O)C(=O)N2CCCN2CCOCC2)cc1 (configuration not stated) returned TAR Tat displ -1.56 and CDC25B CDK2 inh -1.09.
For O=S(=O)(c1ccc(Br)cc1)N1CCC(N2CCCCC2)CC1 the results were TAR Tat displ 0.47 and CDC25B CDK2 inh 0.03.
For CSc1cccc(NC(=O)CCc2c(C)nn(-c3ccc(N4CCCC4)nn3)c2C)c1 the results were TAR Tat displ -0.37.
For CCN1C(=O)C(O)(CC(=O)c2ccccc2O)c2ccccc21 (configuration not stated) the results were TAR Tat displ 1.26 and CDC25B CDK2 inh -1.05.
`Cc1[nH]c(=O)[nH]c(=O)c1S(=O)(=O)Nc1ccc(F)cc1F` gave TAR Tat displ 1.78.
`O=C(O[C@H]1[C@H](Oc2ccccc2COC(=O)C2(O)C=CCCC2=O)O[C@H](CO)[C@@H](O)[C@@H]1O)c1ccccc1` (some centres not stated) gave TAR Tat displ 0.9.
O=S(=O)(c1ccc(C2=CSC3=NCCN23)cc1)N1CCOCC1 was read as CDC25B CDK2 inh -1.71.
O=C(Nc1ccc(F)cc1)N1CCN(c2ccc3nnc(-c4ccccc4)n3n2)CC1 was read as TAR Tat displ 0.61 and CDC25B CDK2 inh -0.47.
For CCCCN1C(=O)C(O)(CC(=O)c2ccccc2)c2ccccc21 (configuration not stated) the results were TAR Tat displ -1.56 and CDC25B CDK2 inh 11.8*.
CCCCSc1nnc2c(n1)[nH]c1ccc(C)cc12 was read as TAR Tat displ 0.2 and CDC25B CDK2 inh -2.61.
For O=C(CCS(=O)(=O)c1cccc2nsnc12)N1CC=C(c2ccccc2)CC1 the results were TAR Tat displ 1.69 and CDC25B CDK2 inh -1.48.
Screening O=C(OCc1ccccn1)c1ccc(COc2ccc3ccccc3c2)o1 returned TAR Tat displ 0.79 and CDC25B CDK2 inh -0.63.
For O=C(Oc1c(CN2CCOCC2)cc(Cl)c2cccnc12)c1cccs1 the results were CDC25B CDK2 inh -2.38.
`Cc1cc(C)n(-c2nc(NCCCN(C)C)c3c4c(sc3n2)COC(C)(C)C4)n1` gave TAR Tat displ 0.71 and CDC25B CDK2 inh -1.6.
Screening COc1ccc(-c2ccc(Cc3nc(-c4ccccc4)no3)cc2)cc1 returned TAR Tat displ -0.84 and CDC25B CDK2 inh -6.36.
CCCCN1C(=O)C(=O)c2cc(Br)cc(C)c21 was read as TAR Tat displ 2.47 and CDC25B CDK2 inh 0.96.
For O=C(O)c1cc(Nc2ccccc2C(=O)O)nc(Nc2ccccc2C(=O)O)n1 the results were CDC25B CDK2 inh 1.28.
CSc1cccc(NC(=O)Cn2ncn3nc4c(c3c2=O)CCCC4)c1 was read as TAR Tat displ 1.52.
O=C(COc1ccc2ccccc2c1)Nc1ccc(S(=O)(=O)N2CCCCCC2)cc1 was read as CDC25B CDK2 inh -3.57.
For CCCCCCC(C)NC(=O)Cn1cnc2c1c(=O)n(C)c(=O)n2C (configuration not stated) the results were CDC25B CDK2 inh -1.17.
Screening Cc1ccc(C)c(N2CCN(S(=O)(=O)c3ccc(-c4cnc(C)o4)cc3)CC2)c1 returned TAR Tat displ 0.94.
Screening O=C(NCC1CCCO1)c1ccc(N2CCOc3ccc(Cl)cc32)s1 (configuration not stated) returned TAR Tat displ 0.5.
`O=C(Nc1ccccc1N1CCOCC1)c1ccc(N2CCOCC2)nc1` gave CDC25B CDK2 inh -2.01.
`CCOc1ccc(-c2nonc2NC(=O)C(C)Oc2ccc(C(C)(C)C)cc2)cc1` (configuration not stated) gave TAR Tat displ 1.23 and CDC25B CDK2 inh -0.04.
CC(=O)Oc1ccc(Br)cc1C1=NN(C(C)=O)C(c2cc(C)nc3ccccc23)O1 (configuration not stated) was read as TAR Tat displ 0.82.
CCc1ccc2c(c1)NC(c1ccncc1)=NC(c1ccncc1)=N2 was read as TAR Tat displ 0.96 and CDC25B CDK2 inh -1.31.
`COc1ccc(NC(=O)C2=Cc3sc4c(c3CS2)CCCC4)cc1Cl` gave TAR Tat displ -1.21.
COc1ccc2c(=O)cc(C(F)(F)C(F)F)oc2c1 was read as CDC25B CDK2 inh -1.11.
Cc1cc(=O)n(CCO)c(=O)[nH]1 was read as CDC25B CDK2 inh -1.26.
Screening O=S(=O)(NCCS(=O)(=O)N1CCN(c2ccccc2)CC1)c1ccc2c(c1)OCCO2 returned TAR Tat displ 0.66.
Screening Cc1nc(N)nc(N/N=C/c2ccccc2O)n1 returned CDC25B CDK2 inh -2.09.
For Clc1cccc(N2CCN(c3c4c(nc5ncnn35)CCC4)CC2)c1 the results were TAR Tat displ 0.04.
For COc1ccc(-c2noc(C3CCCN(S(=O)(=O)c4ccc(C)c(C)c4)C3)n2)c(OC)c1 (configuration not stated) the results were TAR Tat displ 1.32.
Screening COC(=O)C1=C(OC(=O)c2ccc(C)cc2)c2ccccc2S(=O)(=O)N1C(C)C returned TAR Tat displ -0.09 and CDC25B CDK2 inh -0.27.
CCc1ccccc1NC1=NS(=O)(=O)C(c2ccc(Cl)cc2)=C1C was read as TAR Tat displ 0.26 and CDC25B CDK2 inh -1.15.
Screening Cc1cc(=O)nc2c3ccccc3n(C(C)C(=O)NCC3CCCO3)n12 (configuration not stated) returned TAR Tat displ -0.82 and CDC25B CDK2 inh -0.9.
`C=CCNS(=O)(=O)c1ccc(N2CCCCS2(=O)=O)cc1` gave TAR Tat displ 0.53.
COc1ccc(-c2nc(SCc3cc(=O)n4nc(C5CCCCC5)sc4n3)n[nH]2)cc1 was read as TAR Tat displ 0.86.
`C#CCOc1cc(C2CC(=O)Nc3c2c(C)nn3-c2nncc(-c3ccc(C)cc3)n2)ccc1OC` (configuration not stated) gave TAR Tat displ 0.36.
Screening Fc1ccccc1-c1noc(NCCN2CCCc3ccccc32)n1 returned TAR Tat displ -1.04.
Screening CCOC(=O)CC(=O)Nc1c(C)csc1C(=O)OC returned CDC25B CDK2 inh -0.42.
